# rRNA inh HTS = reduced GFP signal of wild-type E. coli, primary screen, bacterial rRNA inhibitor project, GFP/RFP fluorescence, OD600, single point; 350,000 tested, 1.6% active; E. coli WT GFP vs humanized-ribosome RFP mutants, 24 h; active compounds read low; DMSO median 0, no signal -100; GFP signal change (wild-type ribosome), % (concentration not given with the values);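 active = significant combined selectivity score with lowered wild-type GFP, culture density cut under 30%, mutant RFP and density less affected; inactive = any of these conditions unmet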; also: one replicate is shown; some compounds called inactive have numbers as strong as hits
# rRNA inh HTS OD600 = also measured in rRNA inh HTS; calls as there; OD600 change, %; measured here: OD600 growth;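 optical density of the mix in the first replicate; 0 = DMSO median and -100 = no signal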
# rRNA inh HTS RFP = also measured in rRNA inh HTS; calls as there; RFP signal change, %; measured here: RFP humanized mutant strains;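 first replicate; 0 = DMSO median and -100 = no signal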
# An asterisk follows results filed as active. Only part of the results is shown. The share of hits here may be higher or lower than overall.
rRNA inh HTS RFP,rRNA inh HTS OD600,rRNA inh HTS,compound
0.8,4.7,-1.7,Cc1ccc(S(=O)(=O)Nc2ccc3c(c2)CC(=O)N([C@@H](C)CO)C[C@@H](C)[C@@H](CN(C)S(=O)(=O)c2ccc(F)cc2)O3)cc1
-3.0,9.6,3.2,C[C@H](CO)N1C[C@H](C)[C@@H](CN(C)Cc2ccc(C(=O)O)cc2)OCCCC[C@H](C)Oc2ccc(NS(=O)(=O)c3cn(C)cn3)cc2C1=O
-1.4,-2.4,-1.3,COc1ccc(NC(=O)Nc2ccc3c(c2)C(=O)N([C@H](C)CO)C[C@H](C)[C@@H](CN(C)S(=O)(=O)c2cn(C)cn2)OCCCC[C@H](C)O3)cc1
-2.1,6.0,-0.3,C[C@@H]1CN([C@H](C)CO)C(=O)c2cc(NC(=O)Nc3ccccc3)ccc2O[C@@H](C)CCCCO[C@@H]1CN(C)Cc1ccc(C(F)(F)F)cc1
-0.3,-3.6,-0.6,CCC(=O)N1CC(=O)N2[C@H](C1)[C@H](c1ccc(C3=CCCCC3)cc1)[C@@H]2CO
-1.6,-1.4,-2.4,C[C@H](CO)N1C[C@H](C)[C@H](CN(C)C(=O)Nc2ccc3c(c2)OCO3)OCCCC[C@H](C)Oc2ccc(NC(=O)Cc3ccccc3)cc2C1=O
-1.4,4.8,-0.5,COc1ccc(S(=O)(=O)Nc2ccc3c(c2)C(=O)N([C@@H](C)CO)C[C@@H](C)[C@H](CN(C)C(=O)Nc2ccc4c(c2)OCO4)O3)cc1
0.2,6.9,3.6,CCCNC(=O)N1[C@@H]2CNC[C@H]1C2c1ccc(-c2ccccc2F)cc1 (some centres not stated)
0.3,-2.4,2.4,C/C=C/c1ccc([C@@H]2[C@@H](CO)N(C(C)=O)[C@@H]2CN(C)S(C)(=O)=O)cc1
-2.0,20.0,-0.6,C[C@H]1CN([C@@H](C)CO)C(=O)c2cc(-c3cccc(F)c3)cnc2O[C@@H]1CN(C)C(=O)C1CC1
-1.1,8.9,2.0,O=C(CC1CC1)Nc1ccc2c(c1)[C@@H]1C[C@H](CC(=O)N3CCOCC3)O[C@@H](CO)[C@@H]1O2
3.1,-8.1,-5.5,Cc1ccc(S(=O)(=O)N(C)C[C@@H]2Oc3ccc(NS(=O)(=O)c4ccc(F)cc4)cc3C(=O)N([C@@H](C)CO)C[C@H]2C)cc1
0.8,5.2,3.2,CNC[C@H]1Oc2ccc(NC(=O)NC(C)C)cc2CC(=O)N(C)C[C@@H]1C
4.5,6.7,1.0,COc1ccc(CN(C)C[C@H]2OCCCC[C@H](C)Oc3ccc(NS(=O)(=O)c4c(C)noc4C)cc3C(=O)N([C@H](C)CO)C[C@@H]2C)cc1
-1.4,-0.1,-0.7,CC(C)NC(=O)Nc1cccc2c1O[C@@H](CN(C)S(C)(=O)=O)[C@@H](C)CN(C)C2=O
-4.0,-20.4,-13.7,CC(C)NC(=O)N1[C@H](CO)[C@@H](c2ccccc2)C12CN(Cc1cc(F)cc(F)c1)C2
-2.7,-7.6,1.9,CC(C)(C)[S@@](=O)N1Cc2cc(C(=O)N[C@@H]3CCN(Cc4ccccc4)C3)nc(-c3cccc(-c4cncnc4)c3)c2[C@H]1CCO
4.3,-19.7,-15.1,O=C(N[C@H](C(=O)N1CCC[C@H]1C(=O)NCCc1ccccc1Cl)c1ccccc1)c1ccc(Cl)cc1Cl
0.8,19.9,14.9,C=CC(=O)NC1CCCCN(C)C1=O (configuration not stated)
-1.2,8.4,9.1,CCCCCNC(=O)c1nc(-c2c(F)cccc2F)oc1-c1ccccc1
3.8,-33.3,-8.8,O=C1Nc2ccccc2OCc2cn(nn2)CC[C@H]1Cc1ccc(-c2ccccc2)cc1
-1.1,10.2,0.7,COc1ccc2c3c(n(C)c2c1)[C@@H](CO)N(Cc1cccnc1)CC31CCN(Cc2cccnc2)CC1
0.5,12.8,6.2,O=C(C[C@H]1CC[C@H]2NC[C@@H](O)COC[C@@H]2O1)N1CCc2ccccc2C1
6.1,-41.6,-6.2,CO[C@H]1CN(C)C(=O)c2cc(NC(=O)c3ccc(Oc4ccccc4)cc3)ccc2OC[C@H](C)NC[C@@H]1C
2.3,5.8,6.2,Cc1ccc(S(=O)(=O)Nc2cccc3c2O[C@H](CN(C)S(=O)(=O)c2ccc(Cl)cc2)[C@H](C)CN([C@@H](C)CO)C3=O)cc1
4.1,-1.5,6.0,COc1ccc(S(=O)(=O)Nc2ccc3c(c2)C(=O)N([C@@H](C)CO)C[C@H](C)[C@H](CN(C)CC2CCCCC2)OCCCC[C@H](C)O3)cc1
2.8,-6.9,1.0,Nc1ncnc2c1ncn2[C@@H]1O[C@H](C(=O)N[C@@H](CCc2ccccc2)C(=O)N2CCN(C(=O)C(F)(F)F)CC2)[C@@H](O)[C@H]1O
-3.1,2.2,4.1,COCC(=O)Nc1ccc2c(c1)C(=O)N(C)C[C@H](OC)[C@H](C)CN[C@H](C)CO2
-2.0,-7.3,0.8,COC(=O)c1ccc(CN2CC(=O)N3[C@H](CO)[C@@H](c4ccc(-c5ccc(OC)cc5)cc4)[C@H]3C2)cc1
1.8,6.4,6.0,CC(C)[C@H]1C/C=C\CCNC(=O)[C@@H](C)CC(=O)N1
0.0,9.5,3.8,CC(C)NC(=O)N(C)C[C@@H]1Oc2ccc(NC(=O)Cn3cnnn3)cc2C(=O)N([C@H](C)CO)C[C@@H]1C
0.2,-6.0,0.3,C[C@H](CO)N1C[C@H](C)[C@H](CN(C)Cc2ccc(Cl)c(Cl)c2)Oc2ccc(NS(=O)(=O)c3ccc(F)cc3)cc2CC1=O

# Reprinted from the part before: 3 entries; new compounds follow.
rRNA inh HTS RFP,rRNA inh HTS OD600,rRNA inh HTS,compound
1.8,6.4,6.0,CC(C)[C@H]1C/C=C\CCNC(=O)[C@@H](C)CC(=O)N1
0.0,9.5,3.8,CC(C)NC(=O)N(C)C[C@@H]1Oc2ccc(NC(=O)Cn3cnnn3)cc2C(=O)N([C@H](C)CO)C[C@@H]1C
0.2,-6.0,0.3,C[C@H](CO)N1C[C@H](C)[C@H](CN(C)Cc2ccc(Cl)c(Cl)c2)Oc2ccc(NS(=O)(=O)c3ccc(F)cc3)cc2CC1=O
-0.9,9.1,6.9,CNC[C@H]1OCCCC[C@@H](C)Oc2ccc(NC(=O)Nc3ccc(OC)cc3)cc2C(=O)N([C@H](C)CO)C[C@H]1C
-0.3,6.8,1.3,C[C@H]1CN([C@@H](C)CO)C(=O)Cc2cc(NC(=O)Cn3cnnn3)ccc2O[C@H]1CN(C)S(C)(=O)=O
1.7,-17.8,-3.8,C[C@@H]1CN([C@H](C)CO)S(=O)(=O)c2ccc(-c3ccccc3)cc2O[C@@H]1CN(C)C(=O)C1CC1
1.5,11.8,7.6,CO[C@@H]1CC[C@H]2CCN(C)C(=O)[C@H](C)N(C)C(=O)c3cccc(C#N)c3OC[C@H]1O2
-1.4,21.6,10.4,C[C@H]1CN([C@@H](C)CO)C(=O)c2cc(C3=CCCCC3)cnc2O[C@H]1CN(C)S(C)(=O)=O
1.0,4.1,3.2,COCC(=O)N1CCC2(CC1)CN(Cc1cc(F)ccc1F)[C@@H](CO)c1c2c2ccc(OC)cc2n1C
-2.6,0.5,-0.4,CCC(=O)N1C[C@@H](C)[C@H](OC)CN(C)C(=O)c2ccc(NC(=O)c3cc(C)on3)cc2OC[C@@H]1C
-2.4,-12.1,-6.0,O=C(Nc1ccc(F)cc1)C(c1ccnc2ccccc12)N1CCN(c2cccc(C(F)(F)F)n2)CC1 (configuration not stated)

# 13 entries out of the list, sorted by molar mass, highest first.
rRNA inh HTS RFP,rRNA inh HTS OD600,rRNA inh HTS,compound
4.1,-1.5,6.0,COc1ccc(S(=O)(=O)Nc2ccc3c(c2)C(=O)N([C@@H](C)CO)C[C@H](C)[C@H](CN(C)CC2CCCCC2)OCCCC[C@H](C)O3)cc1
0.2,-6.0,0.3,C[C@H](CO)N1C[C@H](C)[C@H](CN(C)Cc2ccc(Cl)c(Cl)c2)Oc2ccc(NS(=O)(=O)c3ccc(F)cc3)cc2CC1=O
2.3,5.8,6.2,Cc1ccc(S(=O)(=O)Nc2cccc3c2O[C@H](CN(C)S(=O)(=O)c2ccc(Cl)cc2)[C@H](C)CN([C@@H](C)CO)C3=O)cc1
2.8,-6.9,1.0,Nc1ncnc2c1ncn2[C@@H]1O[C@H](C(=O)N[C@@H](CCc2ccccc2)C(=O)N2CCN(C(=O)C(F)(F)F)CC2)[C@@H](O)[C@H]1O
-0.9,9.1,6.9,CNC[C@H]1OCCCC[C@@H](C)Oc2ccc(NC(=O)Nc3ccc(OC)cc3)cc2C(=O)N([C@H](C)CO)C[C@H]1C
1.0,4.1,3.2,COCC(=O)N1CCC2(CC1)CN(Cc1cc(F)ccc1F)[C@@H](CO)c1c2c2ccc(OC)cc2n1C
-2.4,-12.1,-6.0,O=C(Nc1ccc(F)cc1)C(c1ccnc2ccccc12)N1CCN(c2cccc(C(F)(F)F)n2)CC1 (configuration not stated)
0.0,9.5,3.8,CC(C)NC(=O)N(C)C[C@@H]1Oc2ccc(NC(=O)Cn3cnnn3)cc2C(=O)N([C@H](C)CO)C[C@@H]1C
-2.0,-7.3,0.8,COC(=O)c1ccc(CN2CC(=O)N3[C@H](CO)[C@@H](c4ccc(-c5ccc(OC)cc5)cc4)[C@H]3C2)cc1
1.7,-17.8,-3.8,C[C@@H]1CN([C@H](C)CO)S(=O)(=O)c2ccc(-c3ccccc3)cc2O[C@@H]1CN(C)C(=O)C1CC1
1.5,11.8,7.6,CO[C@@H]1CC[C@H]2CCN(C)C(=O)[C@H](C)N(C)C(=O)c3cccc(C#N)c3OC[C@H]1O2
-3.1,2.2,4.1,COCC(=O)Nc1ccc2c(c1)C(=O)N(C)C[C@H](OC)[C@H](C)CN[C@H](C)CO2
1.8,6.4,6.0,CC(C)[C@H]1C/C=C\CCNC(=O)[C@@H](C)CC(=O)N1

# Next section:
rRNA inh HTS RFP,rRNA inh HTS OD600,rRNA inh HTS,compound
-0.4,9.9,5.3,COc1ccc(NC(=O)Nc2ccc3c(c2)CC(=O)N([C@@H](C)CO)C[C@H](C)[C@@H](CN(C)C(=O)Nc2c(C)noc2C)O3)cc1
-7.3,-43.2,-36.6,O=C(N[C@H](C(=O)N1CCC[C@H]1C(=O)NCCc1ccccc1Cl)c1ccccc1)c1cccs1
-1.3,-12.4,-8.1,CC[C@@H]1CC=CC[C@H](C)Oc2ccccc2C(=O)N(C)[C@@H](C(C)C)C(=O)N1 (mixture of isomers)
-6.0,11.4,4.6,O=C1N[C@@H](Cc2ccccc2)COCc2cnnn2CC[C@H]1Cc1cccc(F)c1

# Screening results (PubChem)
